Screening results deposited in PubChem BioAssay by several laboratories.
Mtb hypoxia inh: Mtb hypoxia fluorescent reporter inhibition; M. tuberculosis hypoxia-regulated fluorescent reporter, fluorescence; fluorescence inhibition, % (no concentration beside the values); 300,000 tested, 0.1% active;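 active = 35 to 45% if threefold the growth effect, above 45% if 1.5-fold the growth effect; inactive = the rest, general growth blockers included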;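 also: wells of about 50 µL received 100 nL stock; 0% = vehicle wells and 100% = reference inhibitor wells; whole bacteria with a GFP reporter of the hypoxia response; strong numbers were not always called active; many hits fall short of the cut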
PrP UTR inh: inhibition of PrP 5' UTR reporter expression | cell-based PrP 5' UTR mRNA reporter, plate reader | inhibition, % (no concentration beside the values) | 340,000 tested, 0.35% active | AID 488862;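 active = every replicate at 50% or more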;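 also: 0 = median of the neutral control wells; tested in H4 reporter cells; numbers are from one replicate; inactives centre near -14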
ugtP null kill: compounds lethal to S. aureus RN4220 ugtP deletion mutant. growth inhibition, % (concentration not given with the values). 330,000 tested, 0.54% active. AID 1259309. OD600 growth, 16 h; some inactives read as strong as hits;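 active = z-score under -3 and OD600 up to 0.15 on both plates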;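 also: plate controls were untreated wells for no effect and antibiotic for full effect; wells of about 80 µL received 100 nL stock; the first replicate is given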
BJeLR viability: BJeLR cell viability loss | BJeLR (HRASV12) viability, CellTiter-Glo ATP luminescence, 48 h; reference of the scale not given here | inhibition, % (concentration not given with the values) | 300,000 tested, 0.17% active;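 active = replicate mean above 50%; inconclusive = above 50% but judged a plate artefact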;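 also: 50 nL library stock added to about 25 µL; numbers are from one replicate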
RN4220 kill: kills Staphylococcus aureus RN4220; S. aureus RN4220 growth, OD600, 16 h; inhibition, % (no concentration beside the values); 330,000 tested, 0.33% active; AID 1259311;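 active = z-score of -3 or lower and OD600 up to 0.18 on both plates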;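 also: plate controls were untreated cells for no effect and reference antibiotic for full effect; stock transfer was 100 nL into about 80 µL; one replicate is shown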
Autofluor counter: counter-screen for toxin protease inhibitors: compound fluorescence; 360,000 tested, 3.1% active; fluorescence intensity (concentration not given with the values); AID 624483; compound autofluorescence counterscreen, microsphere flow cytometry; active compounds read high;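 active = at least 3 SD above the mean of all compounds, about 16000 in these data; inconclusive = too few beads counted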;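 also: 100 nL of 1 mM stock went into each well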
Mtb hypoxia inh growth: second read-out of Mtb hypoxia inh, no call of its own (marks repeat the call); growth inhibition, %; measured here: M. tuberculosis growth (absorbance);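 0% = vehicle and 100% = reference antibiotic; read after six days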
Active calls of the source: *.

Sample of the layout, 2 compounds:
O=C(/C=C/c1cccs1)c1ccc(N2CCOCC2)cc1 was read as Mtb hypoxia inh 0.1, PrP UTR inh -82.5, ugtP null kill -9.8, BJeLR viability 6.0, RN4220 kill 4.8, Autofluor counter 4664 and Mtb hypoxia inh growth 7.7.
Cc1ccc(C)c(-n2c(CNC(=O)c3ccco3)nnc2SCC(=O)N2CCc3ccccc32)c1 was read as Mtb hypoxia inh 1.0, PrP UTR inh -8.4, ugtP null kill 3.3, BJeLR viability -1.4, RN4220 kill 5.7, Autofluor counter 3139 and Mtb hypoxia inh growth 5.9.

The list itself (from the top)
O=C(/C=C/c1cccs1)c1ccc(N2CCOCC2)cc1 was read as Mtb hypoxia inh 0.1, PrP UTR inh -82.5, ugtP null kill -9.8, BJeLR viability 6.0, RN4220 kill 4.8, Autofluor counter 4664 and Mtb hypoxia inh growth 7.7.
Cc1ccc(C)c(-n2c(CNC(=O)c3ccco3)nnc2SCC(=O)N2CCc3ccccc32)c1 was read as Mtb hypoxia inh 1.0, PrP UTR inh -8.4, ugtP null kill 3.3, BJeLR viability -1.4, RN4220 kill 5.7, Autofluor counter 3139 and Mtb hypoxia inh growth 5.9.
For Cn1cc(CN2CCC(Oc3ccc(C(=O)N4CCCCC4)cc3)CC2)cn1 the results were PrP UTR inh -34.5, BJeLR viability 6.7 and Autofluor counter 5954.
Screening O=C(CN1CCC(C(=O)c2cccc(F)c2)CC1)NCc1cccs1 returned Mtb hypoxia inh 4.4, PrP UTR inh -13.0, ugtP null kill 9.3, BJeLR viability 1.8, RN4220 kill 2.2, Autofluor counter 2491 and Mtb hypoxia inh growth 5.8.
For O=C(N/N=C/c1ccc([N+](=O)[O-])o1)c1cc(-c2cccc(Br)c2)nc2ccccc12 the results were PrP UTR inh -23.3, BJeLR viability 1.3 and Autofluor counter 5000.
Screening CC(NC(=O)c1cccc(S(=O)(=O)N2CCc3ccccc3C2)c1)c1ccco1 (stereo not given) returned Mtb hypoxia inh 8.1, PrP UTR inh -16.2, ugtP null kill 13.6, RN4220 kill 6.3, Autofluor counter inconclusive and Mtb hypoxia inh growth 4.8.
Screening COc1ccccc1NC(=O)CSc1nc2ccccc2cc1Cc1ccccc1 returned Mtb hypoxia inh 5.5, PrP UTR inh -26.9, ugtP null kill 18.7, BJeLR viability -6.9, RN4220 kill -0.8, Autofluor counter 6343 and Mtb hypoxia inh growth 26.8.
Screening CCC1(c2ccccc2)NC(=O)N(CC(=O)Nc2cc(Cl)ccc2N2CCOCC2)C1=O (stereo not given) returned Mtb hypoxia inh -8.9, PrP UTR inh -7.1, ugtP null kill -9.8, BJeLR viability 1.2, RN4220 kill -2.1, Autofluor counter 6106 and Mtb hypoxia inh growth 2.4.
`O=C(NC1CCCCC1)c1sc(N2CCOCC2)nc1-c1ccccc1` gave Mtb hypoxia inh 7.5, PrP UTR inh -14.9, ugtP null kill 9.5, BJeLR viability -16.7, RN4220 kill 5.1, Autofluor counter 2648 and Mtb hypoxia inh growth 2.2.
`O=C(N/N=C/c1cccc(F)c1)NC1CCCCC1` gave PrP UTR inh -42.8, BJeLR viability -4.2 and Autofluor counter 2653.
COc1cc(CC(NC(C)=O)C(=O)NC2CCN(S(=O)(=O)c3ccc(NC(C)=O)cc3)CC2)cc(OC)c1 (stereo not given) was read as Mtb hypoxia inh -10.7, PrP UTR inh -4.6, ugtP null kill 13.1, BJeLR viability -11.4, RN4220 kill 8.7, Autofluor counter 2748 and Mtb hypoxia inh growth 0.6.
COc1ccc(OC)c(NC(=O)COC(=O)/C=C/c2ccco2)c1 was read as Mtb hypoxia inh 0.2, PrP UTR inh -16.8, ugtP null kill 6.1, RN4220 kill 7.9 and Mtb hypoxia inh growth -4.0.
CCN(CC)Cc1c(C(=O)N/N=C/c2cccc(OCc3ccc(F)cc3)c2)nnn1-c1nonc1N was read as PrP UTR inh -22.5, BJeLR viability 10.2 and Autofluor counter 5781.
`OCCN1CCN(CC(O)C(F)(F)F)CC1` (stereo not given) gave Mtb hypoxia inh 1.9, PrP UTR inh -9.5, ugtP null kill 10.0, BJeLR viability -8.3, RN4220 kill 2.8, Autofluor counter 4612 and Mtb hypoxia inh growth -1.5.
Screening COc1ccccc1NC(=S)NC(=O)c1ccc(-c2ccc(Cl)cc2)o1 returned Mtb hypoxia inh -8.1, PrP UTR inh -25.6, ugtP null kill -4.4, BJeLR viability 7.3, RN4220 kill 7.6, Autofluor counter 12766 and Mtb hypoxia inh growth 0.0.
COc1ccc(N(CC(=O)Nc2cc(OC)ccc2OC)S(C)(=O)=O)cc1 was read as Mtb hypoxia inh 4.1, PrP UTR inh -8.9, ugtP null kill 3.5, BJeLR viability -11.4, RN4220 kill 6.7, Autofluor counter 4330 and Mtb hypoxia inh growth 2.6.
`CC(C)CCNC(=O)C1CC(c2ccccc2[N+](=O)[O-])=NO1` (stereo not given) gave Mtb hypoxia inh 10.6, PrP UTR inh -4.5, ugtP null kill 4.1, BJeLR viability -9.1, RN4220 kill 11.5, Autofluor counter 3044 and Mtb hypoxia inh growth 14.6.
Screening COc1ccc(S(=O)(=O)Nc2cccc(N(C)S(C)(=O)=O)c2)cc1C returned Mtb hypoxia inh 3.8, PrP UTR inh -28.5, ugtP null kill 16.0, BJeLR viability 4.8, RN4220 kill 4.4, Autofluor counter 2552 and Mtb hypoxia inh growth -4.0.
For CC1=C(C/C(C)=C/c2ccccc2)/C(=C/CO)[C@@H]2OC(=O)O[C@]2(C)C12CC2 the results were PrP UTR inh -12.2, BJeLR viability 6.3 and Autofluor counter 3872.
`O=C(COc1ccc(S(=O)(=O)N2CCCC2)cc1)Nc1ccc2c(c1)OCCO2` gave Mtb hypoxia inh 0.9, PrP UTR inh -8.3, ugtP null kill 3.9, BJeLR viability -4.0, RN4220 kill 2.6, Autofluor counter 2003 and Mtb hypoxia inh growth 0.9.
For CCOc1nc(Nc2ccc(OC)c(Cl)c2)nc(N2CCN(c3ccc(OC)cc3)CC2)n1 the results were PrP UTR inh -19.4, ugtP null kill 4.0, BJeLR viability 1.9, RN4220 kill -0.7 and Autofluor counter 2377.
Cc1ccc(-n2c(C3CC3c3ccc(Cl)cc3)n[nH]c2=S)cc1 (stereo not given) was read as Mtb hypoxia inh -0.4, PrP UTR inh -24.9, ugtP null kill 26.5, BJeLR viability 5.1, RN4220 kill 1.5, Autofluor counter 23745* and Mtb hypoxia inh growth 10.6.
Oc1ccc(NC(=S)N=Nc2c(O)[nH]c3ccc(Br)cc23)cc1 was read as Mtb hypoxia inh 0.4, PrP UTR inh -7.8, ugtP null kill -31.5, BJeLR viability 4.2, RN4220 kill 6.4, Autofluor counter 3835 and Mtb hypoxia inh growth 6.4.
For COc1cc(C=O)cc(Cl)c1OC(=O)N1CCOCC1 the results were Mtb hypoxia inh -7.6, PrP UTR inh -7.9, ugtP null kill 3.7, BJeLR viability 0.9, RN4220 kill 0.9, Autofluor counter 3635 and Mtb hypoxia inh growth -3.5.
Screening Nc1nnc(SCC(=O)Nc2ccc(N3CCOCC3)c(Cl)c2)s1 returned Mtb hypoxia inh -4.3, PrP UTR inh -1.1, ugtP null kill -3.1, BJeLR viability 3.7, RN4220 kill -4.5, Autofluor counter 3946 and Mtb hypoxia inh growth -4.1.
Screening COc1cccc(-n2nc(-c3ccnn3-c3ccccc3)c(=O)n(C)c2=O)c1 returned PrP UTR inh -6.1, ugtP null kill 7.8, BJeLR viability 6.4, RN4220 kill 3.8 and Autofluor counter 3574.
Screening Cc1ccc(CCN2C(=O)CCC2(C)C(=O)NCc2cccnc2)cc1 (stereo not given) returned Mtb hypoxia inh 2.9, PrP UTR inh -9.1, ugtP null kill 7.3, BJeLR viability 0.4, RN4220 kill 3.2, Autofluor counter 8650 and Mtb hypoxia inh growth -2.5.
C/C=C/C(=O)OCC(=O)Nc1cc(OC)c([N+](=O)[O-])cc1C was read as Mtb hypoxia inh 0.7, PrP UTR inh -11.0, ugtP null kill -71.9, BJeLR viability 1.7, RN4220 kill 5.8, Autofluor counter 4027 and Mtb hypoxia inh growth -2.6.
`CN(C)S(=O)(=O)c1ccc(N)c([N+](=O)[O-])c1` gave Mtb hypoxia inh 4.7, PrP UTR inh -5.5, ugtP null kill 9.6, BJeLR viability -2.0, RN4220 kill 3.6, Autofluor counter 3130 and Mtb hypoxia inh growth -3.3.
`COc1cc(O)c(C(CCN2CCOCC2)c2cc(OC)c(OC)c(OC)c2)c(OC)c1` (stereo not given) gave Mtb hypoxia inh 12.0, PrP UTR inh -9.5, ugtP null kill -1.7, BJeLR viability 6.1, RN4220 kill 2.8, Autofluor counter 3012 and Mtb hypoxia inh growth 12.5.
Screening O=C(Nc1cccnc1)c1cc(F)cc(F)c1 returned PrP UTR inh -0.8, ugtP null kill 0.6, BJeLR viability 2.7, RN4220 kill 3.2 and Autofluor counter 2152.
Screening O=C(CSc1nc(-c2ccco2)cc(C(F)(F)F)n1)Nc1ccc2c(c1)CCC2 returned PrP UTR inh -45.0, ugtP null kill -5.8, BJeLR viability -4.3, RN4220 kill -3.4 and Autofluor counter 3453.
Cc1cccc(OCCNS(=O)(=O)c2ccc(Cl)cc2)c1 was read as Mtb hypoxia inh 2.8, PrP UTR inh -10.8, ugtP null kill -5.2, RN4220 kill 7.4, Autofluor counter 3574 and Mtb hypoxia inh growth 6.1.
`N/C(=N\S(=O)(=O)c1cc(C(F)(F)F)cc(C(F)(F)F)c1)c1ccc(Cl)cc1` gave Mtb hypoxia inh -3.9, PrP UTR inh -6.4, ugtP null kill -34.5, BJeLR viability -13.4, RN4220 kill -1.5, Autofluor counter inconclusive and Mtb hypoxia inh growth 3.1.
Screening CC1=CC(=O)C=C(C)C1=NOc1ccccc1[N+](=O)[O-] returned Mtb hypoxia inh 17.9, PrP UTR inh -26.6, ugtP null kill -2.9, BJeLR viability 51.5*, RN4220 kill 1.4, Autofluor counter 2345 and Mtb hypoxia inh growth 7.9.
Screening COc1cc(OC)cc(C(=O)NCc2nc(-c3ccccc3)no2)c1 returned Mtb hypoxia inh 10.7, PrP UTR inh -43.0, ugtP null kill 7.0, BJeLR viability 0.4, RN4220 kill 1.9, Autofluor counter 6561 and Mtb hypoxia inh growth 8.4.
Screening COc1ccc(-c2nnc(SCC(=O)Nc3cc(C)on3)o2)cc1 returned Mtb hypoxia inh 4.6, PrP UTR inh 31.3, ugtP null kill 6.5, BJeLR viability -5.1, RN4220 kill 2.1, Autofluor counter 3209 and Mtb hypoxia inh growth 2.0.
Screening COc1ccccc1CNS(=O)(=O)c1c(C(=O)N2CCCC2)c(C)n(C)c1C returned Mtb hypoxia inh 0.7, PrP UTR inh 1.1, ugtP null kill -1.5, BJeLR viability 12.2, RN4220 kill 1.3, Autofluor counter 5863 and Mtb hypoxia inh growth -3.2.
`COc1ccccc1OCC(=O)NNC(=O)Nc1ccc(Cl)cc1` gave Mtb hypoxia inh 7.8, PrP UTR inh -16.2, ugtP null kill 7.2, BJeLR viability 4.7, RN4220 kill -1.5, Autofluor counter 3940 and Mtb hypoxia inh growth 2.6.
N=C(N)SCC1=CCS(=O)(=O)C1 was read as Mtb hypoxia inh 7.6, PrP UTR inh -19.5, ugtP null kill 4.1, BJeLR viability -4.3, RN4220 kill 0.1, Autofluor counter 4092 and Mtb hypoxia inh growth 1.2.
Screening COc1ccc(NC(=O)CN(C)C(=O)CNC(=O)c2ccc3ccccc3c2)cc1 returned Mtb hypoxia inh -3.9, PrP UTR inh -26.0, ugtP null kill -1.3, RN4220 kill 0.6, Autofluor counter 6211 and Mtb hypoxia inh growth 10.8.
Screening O=C(COC(=O)c1ccc(Cl)c(S(=O)(=O)N2CCCCC2)c1)NCC1CCCO1 (stereo not given) returned Mtb hypoxia inh 20.3, PrP UTR inh -0.9, ugtP null kill 10.3, BJeLR viability -4.1, RN4220 kill 6.4, Autofluor counter 3075 and Mtb hypoxia inh growth 5.4.
For Cc1ccc(NC(=O)CCNC(=O)c2ccc([N+](=O)[O-])cc2)cc1S(=O)(=O)N1CCOCC1 the results were Mtb hypoxia inh -4.5, PrP UTR inh -2.6, ugtP null kill -3.7, RN4220 kill -2.6, Autofluor counter 9701 and Mtb hypoxia inh growth 8.1.
O=C(NC(CSSCC(NC(=O)c1ccccc1)C(=O)O)C(=O)O)c1ccccc1 (stereo not given) was read as PrP UTR inh -11.5, ugtP null kill -0.5, BJeLR viability 8.8, RN4220 kill 0.4 and Autofluor counter 5417.
For C/C(=N\NC(=O)c1ccc(Cn2cc([N+](=O)[O-])cn2)o1)c1cccc(NC(=O)C(C)C)c1 the results were PrP UTR inh -16.2, BJeLR viability 13.9 and Autofluor counter 2471.

This is a random part of the collection; any-hit rate near 4%.
